GALR2 agonist: GALR2 receptor agonists, primary screen, cell-based | Galanin receptor type 2 (Homo sapiens), O43603 | GALR2-expressing cells, agonist activation read-out | activation, %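 (tested at 5 µM)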 | hit rate 0.48% among 140,000 | AID 803, 2007;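 active means above mean plus 3 SD of all compounds, about 5% in these data, not always enough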;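 further: 0% = vehicle buffer wells and 100% = reference agonist at full effect; tested in CHO reporter cells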
Target sequence (O43603 whole entry, looked up): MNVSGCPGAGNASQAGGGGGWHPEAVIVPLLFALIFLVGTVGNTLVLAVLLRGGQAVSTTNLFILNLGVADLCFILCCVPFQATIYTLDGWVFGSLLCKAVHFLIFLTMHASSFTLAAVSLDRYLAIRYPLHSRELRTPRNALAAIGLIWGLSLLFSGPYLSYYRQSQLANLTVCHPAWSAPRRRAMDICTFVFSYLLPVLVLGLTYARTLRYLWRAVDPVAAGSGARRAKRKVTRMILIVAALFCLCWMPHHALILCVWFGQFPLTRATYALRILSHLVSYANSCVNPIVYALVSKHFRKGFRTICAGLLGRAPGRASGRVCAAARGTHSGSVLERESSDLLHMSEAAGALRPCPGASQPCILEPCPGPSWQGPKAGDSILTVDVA
HSV replic up: enhancers of HSV replication in host cells, fold increase, host cell viability | HSV replication augmentation in cells | maximum fold increase | hit rate 0.005% among 220,000;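 active means peak rise of 1.5-fold or more in the series; tested in PC3 cells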;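 further: first round at 10 µM; read as green reporter fluorescence; hits show the peak of a series up to 25 µM; 1 = signal of infected wells without compound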
INS promoter inh: inhibitors of insulin promoter-driven GFP, primary screen, imaging, TRM-6 cells (human fetal islet line), eGFP reporter, cell count. hit rate 0.9% among 130,000. inhibition, % at 2 µM. reporter expression induced with tamoxifen;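 active means inhibition above the mean plus 3 SD, with well images judged a real hit on visual review, cut at about 60% in these data, passing the limit was not always enough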
PKD1 inh: inhibitors of human PKD1 kinase, biochemical, fluorescence polarization; Serine/threonine-protein kinase D1 (Homo sapiens), Q15139; PKD1 kinase fluorescence polarization assay; inhibition, %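 (about 10 µM by stock and volumes)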; hit rate 0.056% among 200,000; AID 797, 2007;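 active means inhibition of 50% or more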;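 further: controls were vehicle for no effect and a reference inhibitor for full effect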
RGS16-Gao HTS: modulators of RGS16 binding to Galphao, primary screen, biochemical, human proteins, multiplexed bead flow cytometry. Regulator of G-protein signaling 16 (Homo sapiens) + Guanine nucleotide-binding protein …. bead-based flow cytometry RGS16-Galphao binding, fluorescence; actives lie on both sides. binding response (% of control), % at 10 µM. hit rate 0.38% among 220,000;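 active means below 25% or above 175%, edge rows of some plates excepted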;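 further: Galphao activated by GDP with aluminum fluoride before binding; 100% = wells without compound and 0% = beads without RGS; some results beyond the cut were filed as inactive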
Target sequence (O15492 whole entry, looked up): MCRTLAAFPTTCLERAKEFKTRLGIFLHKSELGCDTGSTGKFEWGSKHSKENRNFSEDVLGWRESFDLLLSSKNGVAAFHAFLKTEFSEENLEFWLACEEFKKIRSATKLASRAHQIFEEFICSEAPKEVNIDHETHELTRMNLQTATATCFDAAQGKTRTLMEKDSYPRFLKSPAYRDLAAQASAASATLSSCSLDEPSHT
Target sequence (P09471 whole entry, looked up): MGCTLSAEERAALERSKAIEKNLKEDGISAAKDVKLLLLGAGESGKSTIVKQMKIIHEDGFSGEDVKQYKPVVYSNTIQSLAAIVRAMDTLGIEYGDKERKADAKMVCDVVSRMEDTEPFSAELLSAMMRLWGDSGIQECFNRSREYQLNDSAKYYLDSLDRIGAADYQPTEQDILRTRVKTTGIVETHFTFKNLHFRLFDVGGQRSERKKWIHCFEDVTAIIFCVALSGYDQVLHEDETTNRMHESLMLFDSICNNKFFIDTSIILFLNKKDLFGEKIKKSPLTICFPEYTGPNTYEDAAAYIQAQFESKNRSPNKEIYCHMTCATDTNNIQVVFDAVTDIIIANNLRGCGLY
INS promoter inh cell count: further read-out of INS promoter inh, marked with its call; normalized cell count, %; measured here: cell count, toxicity; reference of the scale not given here;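 cells exposed to compound for 48 h; stained nuclei by imaging scaled within each plate; lower means fewer cells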
HSV replic up primary fold: second read-out of HSV replic up, no call of its own (marks repeat the call); fold increase; compound at 10 µM; measured here: primary screen fold increase 10 uM; tested in PC3 cells;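 GFP signal in the first replicate; 1 = infected wells without compound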
An asterisk follows results filed as active; i = inactive; · = no result given; [ ] = remark or other dose. An unsorted share of the library; any-hit rate near 1.3%.

#	Compound	GALR2 agonist	HSV replic up	HSV replic up primary fold	INS promoter inh	INS promoter inh cell count	PKD1 inh	RGS16-Gao HTS
1	CC(=O)Nc1sc2c(c1C(c1ccccc1Cl)N1CCN(CCO)CC1)CCCC2 (stereo not drawn)	·	i	1	·	·	5	102
2	CCOc1ccc(-c2nnc(-c3cccnc3)o2)cc1OCC	0.6	i	0.84	64	77	-10	103
3	Cc1ccc(C(=O)Nc2ccc3[nH]c(=O)[nH]c3c2)c(C)c1	·	i	1.1	·	·	-3	93
4	CCN(CC1COc2ccccc2O1)C(=S)NC1CC2CCC1C2 (stereo not drawn)	·	i	1	·	·	4	103
5	COc1ccc(Oc2nc(SC)nc3ccccc23)cc1	-0.6	i	0.9	10	150	5	105
6	COc1cc2[nH]c(=S)nc(Nc3ccc(NC(C)=O)cc3)c2cc1OC	·	i	0.84	·	·	0	97
7	CCOC(=O)c1c(NC(=O)c2cnn3c2NC(c2cccc(OC)c2)CC3C(F)(F)F)sc2c1CCCC2 (stereo not drawn)	0.1	i	1	44	118	-4	55
8	Cc1ccc(C(=O)N2CCOCC2)cc1[N+](=O)[O-]	-1.1	i	0.98	31	127	3	102
9	COc1ccc(C(CNC(=O)c2cc(C)oc2C)N2CCOCC2)cc1 (stereo not drawn)	0.1	i	0.98	14	83	-5	103
10	Cc1ccc(C)c(S(=O)(=O)Nc2ccc(C(N)=O)cc2)c1	·	i	0.85	·	·	-8	105
11	CN(C)S(=O)(=O)c1cccc(NC(=O)CNCc2ccccn2)c1	·	i	0.96	·	·	·	100
12	N#Cc1cn(CC(=O)N2CCCC2)c2ccccc12	-5.3	i	0.92	-33	200	-5	101
13	O=C(N/N=C/c1c[nH]c2ccccc12)c1ccn[nH]1	·	i	0.98	·	·	-3	103
14	COc1ccc(S(=O)(=O)N(C)c2c(C)n(C)n(-c3ccccc3)c2=O)cc1OC	-3.2	i	0.98	8	123	2	105
15	O=c1c(CN2CCN(c3cccc(Cl)c3)CC2)coc2c(Cl)cc(Cl)cc12	-1.2	·	·	30	117	-8	101
16	O=C(O)C1C(=O)NCC1c1ccccc1 (stereo not drawn)	·	i	0.72	·	·	-4	101
17	CCCc1cc(=O)[nH]c(SCc2cc(C(=O)OC)c(C)o2)n1	-0.9	i	0.85	21	84	-1	139
18	CCSC(SCC)[C@H](O)[C@@H](O)[C@H](O)[C@H](O)CO	-0.3	i	0.89	-5	77	-7	98
19	Cc1ccc2nc(NC(=O)CCCC(=O)O)sc2c1	·	i	1.1	·	·	-6	102
20	O=C(N/N=C/c1ccc(N2CCOCC2)cc1)c1ccc(NS(=O)(=O)c2cccs2)cc1	·	i	1	67	149	3	98
21	COc1ccc(C(=O)/C=C/c2ccc(OC(=O)c3cc(OC)c(OC)c(OC)c3)cc2)cc1	-2.3	i	0.88	-8	72	5	697
22	COc1ccc(C(=O)c2c(C)oc3ccc(O)c(CN4CCOCC4)c23)cc1	-0.5	i	1	·	·	-2	79
23	O=C(N/N=C/c1ccccc1F)NC1CCCCC1	-0.3	i	1	·	·	3	107
24	CCCn1c2c(c(O)c(C(=O)Nc3ccc(OCC)cc3)c1=O)CCCC2	-1.5	·	·	-60	72	-1	104
25	Cc1nn(C)cc1C(C(=O)NC1CCCCC1)N(C(=O)Cc1cccs1)c1ccc(C(C)C)cc1 (stereo not drawn)	-2.3	i	1	-200	118	0	47
26	CCOc1ccccc1NS(=O)(=O)c1cn(C)c(=O)n(C)c1=O	·	i	0.89	·	·	·	114
27	Cc1c(C)n(CC(O)CNCCO)c2ccccc12 (stereo not drawn)	·	i	0.93	·	·	6	95
28	CS(=O)(=O)N(CC(=O)NC1CCCC1)Cc1ccc(Cl)cc1	-1.9	i	1	3	117	-1	104
29	O=C1NCCCC2c3c(cc(Br)c(O)c3Br)OC12N1CCOCC1 (stereo not drawn)	0.6	i	1	-118	170	-7	99
30	COc1cccc2cc(C(C)N(CCCN3CCOCC3)C(=S)Nc3cccc(C)c3C)oc12 (stereo not drawn)	·	i	0.93	-35	131	0	107
31	COC(=O)C1=NN(C(C)=O)C2(CC(=O)N(c3cccc(C)c3)C2=O)C1 (stereo not drawn)	-0.2	i	0.94	-33	110	6	109
32	CCn1c(SCC(=O)N2CCC(C)CC2)nnc1-c1ccc(S(=O)(=O)N2CCN(C)CC2)cc1	-0.7	i	0.96	-21	111	-2	99
33	COc1ccc(NC(=S)Nn2cnnc2)cc1OC	·	i	0.98	5	118	-3	101
34	Cc1ccc(NC(=O)/C(=C/c2cccs2)NC(=O)c2ccco2)cc1	0.6	i	1.1	30	61	-2	99
35	O=C(NC1CCCCCC1)c1c(O)c2ccccc2[nH]c1=O	0.1	i	0.95	·	·	3	99
36	Cc1ccc(Cn2ccc(NC(=O)c3cc(-c4ccc(Br)cc4)on3)n2)cc1	-1.6	i	0.96	-22	104	-9	104
37	CC(C)CNS(=O)(=O)c1ccc(CCC(=O)Nc2ccc3c(c2)OCO3)cc1	-0.8	i	1.1	33	121	-4	125
38	COc1ccc(C)cc1S(=O)(=O)N(C)CC(=O)N1CCCCCC1	0.2	i	0.95	14	148	0	103
39	CN(Cc1cnccn1)Cc1c(C(=O)N2CCc3ccccc3C2)nc2ccc(Cl)cn12	·	i	1	·	·	-1	108
40	COc1ccc(C(=O)N(CN2CCCC2=O)c2ccc(C)cc2)cc1	-2.1	i	0.82	·	·	-22	100
41	CCOC(=O)CN1C(=O)S/C(=C/c2ccc(OC)c([N+](=O)[O-])c2)C1=O	-1.3	i	0.8	-30	90	-5	90
42	CN1CSC2=C(C#N)C(c3cccc(OCc4ccccc4)c3)CC(=O)N2C1 (stereo not drawn)	-2.2	i	0.71	·	·	10	86
43	CC(C)(C)c1ccc(OCCNC(=S)Nc2ccccc2)cc1	·	i	1	·	·	-1	101
44	COCCCNC(=S)NC(=O)c1ccc([N+](=O)[O-])cc1	-2.3	i	0.96	30	98	-11	104
45	O=C(/C=C/c1ccc(F)cc1)Nc1cccc(S(=O)(=O)Nc2cccc(C(F)(F)F)c2)c1	0.1	i	0.9	-26	196	-9	99
46	CCOC(=O)c1[nH]cnc1C(=O)Nc1ccc(F)cc1	·	i	0.97	7	96	4	112
47	O=C(CCSc1ccc(Br)cc1)Nc1cccnc1	·	i	1	·	·	-6	103
48	C/C(=N/Nc1nc(-c2ccccc2)cc(-c2ccc(F)cc2)n1)c1cccc(N)c1	0.4	i	1.2	·	·	-3	100
49	Cc1ccc(CNC(=O)COC(=O)c2ccc(S(=O)(=O)N3CCCC3)cc2)cc1	-0.1	i	1	-30	93	-1	99
50	O=C(C#Cc1ccccc1)c1cccc([N+](=O)[O-])c1	1.2	i	0.74	20	56	11	89
51	C/C(N)=C(/C#N)C(=O)CSc1ccccc1F	·	i	1	3	91	1	100
52	CC(C)(C)n1ncc2c(=O)n(CC(=O)Nc3ccccc3)cnc21	-1.3	i	0.91	·	·	1	104
53	Cc1nc(Cl)c(C(=O)NCCC(C)C)c(C)c1[N+](=O)[O-]	-2.0	i	0.98	-13	83	-9	178*[activator]
54	CCOC(=O)c1ccc(CC(=O)c2ccc(O)c(O)c2O)o1	·	i	1.2	·	·	8	89
55	CC(=O)NCC(O)c1ccc([N+](=O)[O-])cc1 (stereo not drawn)	·	i	0.97	·	·	·	104
56	Cc1ccc(Nc2c(-c3ccccn3)nc3cc(C)ccn23)cc1	·	i	0.63	13	127	-1	96
57	CCN1CCN(CC(=O)Nc2cc(F)ccc2C)CC1	-0.5	i	0.97	-3	95	-3	103
58	CCCCNC(=O)NS(=O)(=O)c1ccc(C(=O)OC(C)C)o1	-0.7	i	1	·	·	-26	98
59	O=C(COc1ccc2ccccc2c1)NCCNC(=O)COc1ccc2ccccc2c1	-2.1	i	0.87	-14	148	-4	89
60	CCOC(=O)/C(C#N)=C/c1cc(C)n(-c2ccccc2)c1C	1.2	i	1.1	27	133	-2	104

Complete entries, looked up by structure. Order of screens: GALR2 agonist | HSV replic up | HSV replic up primary fold | INS promoter inh | INS promoter inh cell count | PKD1 inh | RGS16-Gao HTS
`O=C(COc1ccc2ccccc2c1)NCCNC(=O)COc1ccc2ccccc2c1` across the screens: -2.1 | i | 0.87 | -14 | 148 | -4 | 89
`CN(Cc1cnccn1)Cc1c(C(=O)N2CCc3ccccc3C2)nc2ccc(Cl)cn12` across the screens: · | i | 1 | · | · | -1 | 108
`Cc1ccc(Nc2c(-c3ccccn3)nc3cc(C)ccn23)cc1` across the screens: · | i | 0.63 | 13 | 127 | -1 | 96
`Cc1ccc(Cn2ccc(NC(=O)c3cc(-c4ccc(Br)cc4)on3)n2)cc1` across the screens: -1.6 | i | 0.96 | -22 | 104 | -9 | 104

Next section.
#	Compound	GALR2 agonist	HSV replic up	HSV replic up primary fold	INS promoter inh	INS promoter inh cell count	PKD1 inh	RGS16-Gao HTS
61	CCCCN(CC)CCNC(=O)CCNC(=O)Cn1ccc2ccccc2c1=O	·	i	0.89	·	·	-9	99
62	CCCOc1ccc(/C(O)=C2/C(=O)C(=O)N(CCN(C)C)C2c2ccc(OC)c(OC)c2)cc1 (stereo not drawn)	-2.7	i	1	·	·	-2	102
63	CCC(NC(=O)c1ccccc1NC(=O)c1ccco1)C(=O)NNC(=O)c1ccncc1 (stereo not drawn)	·	i	1.2	·	·	·	98
64	Cc1ccc(S(=O)(=O)N2CCCCC2)cc1NC(=O)Nc1ccc(Cl)cc1Cl	·	i	1.2	39	61	2	105
65	CC(=O)c1ccc(N2CCC(C(=O)O)CC2)cc1	·	·	·	8	90	-2	104
66	O=S1(=O)C=C(SCc2ccc(F)cc2)Nc2ccccc21	·	i	1.1	-58	64	-8	99
67	Cn1cccc1Cc1nnc(SCC(=O)Nc2cccc(F)c2)n1-c1ccc(F)cc1	-0.4	i	1.1	·	·	-18	104
68	O=C(O)Cc1cc2c(s1)CCCCC2	-1.8	i	1	34	81	-5	102
69	COc1ccccc1NC(=O)Cc1nnc(SCC(=O)Nc2ccccc2F)n1C	·	i	1	0	92	-6	103
70	Cc1cc(C(=O)O/N=C(\N)c2ccncc2)ccc1[N+](=O)[O-]	·	i	0.94	·	·	·	94
71	N#Cc1c(NC(=O)CSc2ncn[nH]2)sc2c1CCCC2	-4.4	i	0.87	·	·	2	102
72	CCCC1CC(=O)OC1(C)C(=O)CSc1n[nH]c(-c2ccccc2)n1 (stereo not drawn)	-0.8	i	0.91	14	171	3	100
73	Cc1ccnc(NC(=O)CCC(=O)N(CC(=O)NCCc2ccccc2)Cc2cccs2)c1	·	i	0.85	·	·	0	102
74	CCOc1ccc(NC(=O)C2CCC(C)(C(=O)O)C2(C)C)cc1 (stereo not drawn)	-0.8	i	0.99	·	·	1	98
75	Cc1ccc(-c2nn(-c3ccccc3)cc2C2CC(c3cccs3)=NN2C(=O)CCC(=O)O)cc1 (stereo not drawn)	-0.1	·	·	3	100	-1	104
76	CCOc1ccc(NC(=S)N(CCc2c(C)[nH]c3ccc(C)cc23)Cc2ccco2)cc1	-1.4	·	·	-10	108	-7	·
77	CCC(=O)Nc1cccc(C2=NOC3(C2)C[C@@H](C(N)=O)N(C(=O)C2(C)CC2)C3)c1 (stereo partly drawn)	·	i	1	·	·	·	103
78	O=C(NCC1CCCO1)c1csc(Nc2cccc3ccccc23)n1 (stereo not drawn)	·	i	0.91	-13	92	3	59
79	C/C(=N/NC(=O)CCCOc1ccc(Cl)cc1Cl)c1ccc(C)o1	-1.1	i	0.84	-41	102	4	104
80	Cc1ccccc1CNCc1cccnc1	-1.4	i	1.1	-7	141	-3	102
81	Cc1nnc(NC(=O)CSc2nnc(-c3ccccc3)n2C)s1	·	i	0.99	·	·	-1	100
82	CC(=O)N1CCN=C1SCc1ccc(Br)cc1	-0.1	i	0.96	·	·	13	111
83	OCC1(C2=NOC(O)(C(F)(F)F)C2)CCCCC1 (stereo not drawn)	-2.4	i	1.3	-3	101	1	110
84	O=C(Cn1cnc2cc([N+](=O)[O-])ccc2c1=O)Nc1ccc2c(c1)OCO2	·	i	0.86	24	126	9	99
85	CCOc1ccccc1Nc1nc(-c2sc(NC(=O)c3ccccc3)nc2C)cs1	-0.7	i	0.8	·	·	-14	95

Records listed so far shown as hits in RGS16-Gao HTS.
no. | structure | GALR2 agonist | HSV replic up primary fold | PKD1 inh | RGS16-Gao HTS
53 | Cc1nc(Cl)c(C(=O)NCCC(C)C)c(C)c1[N+](=O)[O-] | -2.0 | 0.98 | -9 | 178*[activator]
